PABP FP inh – blocks human PABP binding to poly(A) RNA | P11940 | fluorescence polarization | inhibition, % at 35 µM | actives 1% (n = 290,000) | AID 2014;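 active means 50% or more with normal probe brightness, or confirmed in later tests; about a fifth of its hits are not listed in these tables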;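 further: calls also rest on retests at 20 µM and on dose response follow-up; controls were probe without protein and protein plus probe with vehicle; some compounds called inactive have numbers as strong as hits; many hits fall short of the cut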
UUG fidelity – modulators of start codon recognition fidelity in yeast. S. cerevisiae UUG-firefly luciferase reporter, luminescence/redox ratio. activity score, % at 18.7 µM. actives 0.13% (n = 350,000);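 active means replicate mean at a twofold rise or more, about +100% in these data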;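 further: firefly luciferase made from a UUG start codon reports start codon fidelity; reporter light over untreated wells divided by growth signal over untreated wells; some hits fall short of that in this replicate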
HIV Env fusion – blocks HIV Env-driven cell-cell fusion | HeLa-JRFL Env/CEM21 cell fusion, luciferase | inhibition, % at 12.3 µM | actives 1.1% (n = 360,000) | AID 651610;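 active means mean replicate inhibition score of at least 50 and every replicate individually at or above 50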;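 further: 0% = plate neutral controls and 100% = maraviroc near 300 nM; one replicate is shown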
CSC inhib – cancer stem cell inhibition; cancer stem cell-like cells viability, luminescence; inhibition, % at 7.5 µM; actives 1.1% (n = 300,000); AID 2717;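 active means mean at 75% or more and at least half the replicates too; tested in HMLE shEcad cells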;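 further: 0% = median of negative and 100% = median of positive control wells; the first replicate is given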
MT1-MMP act inh – blocks activation of human MT1-MMP | HT1080 RFP-PRO-GFP cells, GFP/RFP ratio fluorescence, overnight; percent of plate control window, DMSO zero | GFP/RFP ratio change, % at 20 µM | actives 0.061% (n = 360,000) | P50281;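 active means GFP/RFP ratio change of at least 30% with cell ATP level not reduced by more than half and red fluorescence within 50% of control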; further: strong numbers were not always called active
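Assay system: HT1080 RFP-PRO-GFP cells | Dosing: 20 µM single dose, 1% DMSO | Incubation: Cells overnight before dosing, compound overnight, 37 °C, 5% CO2 | Evaluation: GFP/RFP fluorescence ratio | Control set: DMSO-only wells and HT1080 RFP-L50D-GFP cell wells as references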
Rce1 inhib – yeast Ras-converting enzyme inhibition. yeast membranes, quenched prenylated peptide cleavage fluorescence. calls only. actives 0.27% (n = 290,000). Q03530;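 active means fall in fluorescence gain of 50% or more versus controls, with final raw signal at or below 3038400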;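 further: plate controls were neutral control wells for no effect and wells lacking membranes for full effect; tested at 10 µM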
Target sequence (Q03530 whole entry, looked up): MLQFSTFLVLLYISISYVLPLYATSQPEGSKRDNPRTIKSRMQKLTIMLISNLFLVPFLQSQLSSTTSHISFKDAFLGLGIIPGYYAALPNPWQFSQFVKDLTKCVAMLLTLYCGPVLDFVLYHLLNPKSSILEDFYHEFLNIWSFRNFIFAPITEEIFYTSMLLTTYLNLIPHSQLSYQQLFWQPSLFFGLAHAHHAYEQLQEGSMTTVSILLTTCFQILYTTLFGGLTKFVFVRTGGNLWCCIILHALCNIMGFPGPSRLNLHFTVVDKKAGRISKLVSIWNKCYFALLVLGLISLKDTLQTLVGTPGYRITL
eIF4H inh – inhibitors of RNA binding by human eIF4H. actives 0.94% (n = 290,000). Q15056. AID 2012. eIF4H fluorescence polarization binding assay. inhibition, % at 35 µM;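 active means 50% or more with normal probe brightness, or confirmed in later tests; about a fifth of its hits are not listed in these tables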;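 further: calls also rest on retests at 20 µM and on dose response follow-up; 0% = protein and probe with vehicle and 100% = probe without protein; strong numbers were not always called active; many hits fall short of the cut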
eIF4H inh retest – recorded beside eIF4H inh, whose call it bears; inhibition, %; compound at 20 µM; confirmation average;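 mean of two retest wells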
PABP FP inh retest – further read-out of PABP FP inh, marked with its call; inhibition, %; compound at 20 µM; confirmation repeats;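 mean of two retest wells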
MT1-MMP act inh RFP – also measured in MT1-MMP act inh; calls as there; RFP signal change, %; measured here: RFP expression control read;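 0 = vehicle wells; hits needed this value within 50% of zero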
* = called active by the depositor; i = inactive; . = no result given; + = active, no number.

SMILES	PABP FP inh	UUG fidelity	HIV Env fusion	CSC inhib	MT1-MMP act inh	MT1-MMP act inh RFP	Rce1 inhib	eIF4H inh	others
COc1cc2c(cc1OC)CN(C(=O)c1cc(=O)c3ccccc3o1)CC2	8	-2	.	-7	-8	-16	i	-7
O=C(c1cc(S(=O)(=O)N2CCOCC2)c(Cl)cc1Cl)N1CCN(S(=O)(=O)c2cccc(F)c2)CC1	.	-12	-8	-20	-2	-2	.	.
C=CCOc1c(Br)cc(CNn2nnnc2N)cc1OC	1	-3	.	-4	11	3	i	-4
COc1ccc(C(c2nnnn2Cc2cccs2)N2CCN(c3ccccc3)CC2)cc1OC (stereo unspecified)	-6	9	-67	39	6	-9	i	-5
COc1cc(OC)cc(C(=O)OCC(=O)c2ccc(S(=O)(=O)N3CCCCC3)cc2)c1	.	-8	7	.	1	-5	.	.
Cc1ccnc(NC(=O)COC(=O)c2ccc(F)cc2F)n1	31	-7	-11	-16	3	4	i	39
COc1ccc(C(C(=O)NC2CCCCC2)N(C(=O)c2ccccn2)c2cccnc2)cc1 (stereo unspecified)	-9	.	9	-6	2	3	i	-2
CC(C)C(C(=O)NC1=NCCS1)c1ccc(Cl)cc1 (stereo unspecified)	-3	.	19	14	-4	-5	i	-8
Nc1ccccc1Sc1cc(Cl)nnc1Cl	20	-20	5	4	2	-1	i	81	eIF4H inh retest=2;PABP FP inh retest=14
O=c1c2ccccc2nc2n1CCCN2	-2	1	-2	-6	-13	-11	i	-3
O=C(NCCN1C(=O)S/C(=C\c2ccc(Cl)c([N+](=O)[O-])c2)C1=O)C1=COCCO1	.	-11	-17	52	1	-3	i	.
COc1ccccc1/C=C/C(=O)OCC(=O)NC1CCCCCCC1	.	2	.	-9	5	2	.	.
CCn1c(=O)cc(SCC(=O)NCCC2=CCCCC2)c2ccccc21	-4	.	.	-6	2	2	i	-4
COc1nccnc1NS(=O)(=O)c1ccc(NC(=S)NC(=O)c2cccc(F)c2)cc1	2	.	.	-3	4	3	i	-10
COc1ccccc1Oc1ccc(NC(=O)Cc2ccccc2)cc1	.	6	-13	-1	0	-6	i	.
COc1cccc(-c2nnc(SCC(=O)OC(C)C)n2Cc2ccco2)c1	18	-15	.	-7	2	-2	i	-7
O=C(CCNS(=O)(=O)c1cccc2nsnc12)N1CC(=O)N(CCc2ccccc2)C(=O)C1	16	11	2	-6	2	3	i	6
COC(=O)c1ccc(COC(=O)c2ccc(-n3cnnn3)cc2)o1	1	-21	-26	10	-3	0	i	3
CC(C)CC(=O)Nc1ccc([N+](=O)[O-])cc1Cl	1	.	16	-8	.	.	i	7
CCOC(=O)N1CCN(C(=O)c2cc3c(=O)n4cccc(C)c4nc3s2)CC1	3	-16	9	-8	-2	-3	i	-8
Cc1ccc(S(=O)(=O)N2C[C@H]3C(=O)C[C@@H](c4cccc(Cl)c4)N(S(=O)(=O)c4ccc(C)cc4)[C@H]3C[C@H]2c2ccccc2)cc1	.	-20	-27	.	0	-3	.	.
O=C(O)CCCC(=O)Nc1ccn(-c2ccccc2)n1	0	-23	.	4	-2	4	i	5
COc1ccccc1-n1c(SC)nc(O)cc1=O	2	-8	11	-19	-2	4	i	0
CCCCCCn1c(-c2ccco2)nc2oc3cc(OC)ccc3c(=O)c2c1=O	-1	-9	-107	-11	1	2	i	-4
Cn1cnc2c1c(=O)[nH]c(=O)n2Cc1ccccc1	2	-9	-11	-20	-1	7	i	-1
CC(C)(C)C1CCc2c(C(=O)NNC(=O)/C=C/C(=O)O)csc2C1 (stereo unspecified)	-4	.	-15	3	2	4	i	3
COc1ccc(N2CCN(Cc3nc(Cc4cccc(F)c4)no3)C(C)C2)cc1 (stereo unspecified)	-4	-8	6	-5	-1	-2	i	2
CC(C)n1nnnc1SCC(=O)N1CCOCC1	2	-13	-10	-18	-1	-1	i	-6
C/C=C/C=C/C(=O)[C@@H]1[C@@H]([C@]2(C)OC(=O)C(C)=C2O)[C@H]2/C(=C(O)/C=C/C=C/C)C(=O)[C@]1(C)C(=O)C2(C)O (stereo partly specified)	40	11	.	-3	1	6	i	61*	eIF4H inh retest=74*;PABP FP inh retest=24
Cn1cnnc1SCC(=O)Nc1cccc(S(=O)(=O)N2CCCCCC2)c1	-11	-14	.	-7	6	2	i	1
Cc1c(Cl)cccc1NC(=O)c1ncn[nH]1	0	-3	-2	.	2	5	i	-3
COc1cc(/C=N/NC(=O)c2cccc(S(=O)(=O)N3CCOCC3)c2)cc(OC)c1O	2	-14	-10	-16	7	2	i	-1
Cc1cc(C(=O)OC(C)C(=O)NC2CCCCC2)c(C)o1 (stereo unspecified)	.	0	4	-19	1	-1	.	.
CCC(=O)Nc1ccc(-n2nnnc2SCC(=O)NNC(=O)c2ccco2)cc1	6	.	-15	-9	.	.	i	16
O=C(CN1CCOCC1)Nc1nc(-c2ccc3c(c2)CCN3S(=O)(=O)c2ccccc2)cs1	-10	-6	.	20	-8	-25	i	-26
O=C(CSc1nnc(CNC(=O)c2ccccc2)o1)NCc1ccco1	9	-20	6	2	-2	4	i	34
COc1ccc2c(c1)C1(Nc3ccccc3C(=O)N1c1ccccc1)C(=O)N2 (stereo unspecified)	0	.	.	-15	-3	0	i	-15
Fc1ccc(-c2nc3ccncc3[nH]2)cc1	-4	-8	-37	10	-3	-1	i	-9
CS(=O)(=O)Cc1ccc(C(=O)N(CCc2ccccc2)Cc2ccccc2)cc1	-4	8	4	4	-8	0	+	-2
Cc1cccc2cc(CNC3CCCC3)c(Cl)nc12	-8	3	5	-4	0	4	i	-7
Cc1nn(CC(=O)O)c(C)c1Cl	4	-3	.	-3	-5	1	i	-4
CS(=O)(=O)n1c2ccccc2c(=O)n1-c1ccccc1CCl	.	-16	-3	.	2	3	.	.
O=C(NCCCc1ccccc1)c1cccc(NC(=O)C2CCCC2)c1	.	-7	-27	.	0	-4	.	.
COC(=O)c1sccc1NC(=O)/C=C/c1ccc(Cl)cc1Cl	-7	.	-18	12	-2	0	i	-1
Cc1nc2ccc(S(=O)(=O)NCC(=O)N3CCN(c4ccccc4)CC3)cc2s1	-1	5	.	4	1	-7	i	-7
NC(=O)C1CCN(C(=O)CN(c2ccc3c(c2)OCCO3)S(=O)(=O)c2ccccc2)CC1	.	.	-6	-10	2	0	i	.
CCn1c(SCc2nc3cc(OC)c(OC)cc3c(=O)[nH]2)nc2ccccc21	10	-5	12	5	6	4	i	2
CC(C)N1CCCC(C)(C(=O)Nc2ccccc2)C1 (stereo unspecified)	.	-13	-1	.	-3	5	.	.
CCN(CC)C(=O)CSc1nc(-c2ccco2)cc(C(F)(F)F)c1C#N	-10	-9	2	8	-3	-3	i	-8
O=C(O)c1cccc(S(=O)(=O)N2CCSCC2)c1	-3	15	-11	-8	13	7	i	-2
Cc1ccc(S(=O)(=O)CCC(=O)NCCN2C(=O)S/C(=C\c3ccccc3)C2=O)cc1	-2	2	4	-17	-1	-4	i	5
O=c1[nH]c(C2CCN(S(=O)(=O)Cc3ccccc3)CC2)nc2c1nnn2Cc1cccc(Cl)c1	-4	7	1	7	4	-6	i	-6
COc1ccc(C(C)=O)cc1CSc1ccc2c(c1)OCCO2	-2	-15	-1	1	3	-8	i	-3
c1ccn2c(SCc3ccc4c(c3)OCO4)nnc2c1	7	-3	.	-16	3	-2	i	-6
Cn1c(N)c(C(=O)c2cc(-c3ccccn3)nc3ccccc23)c(=O)[nH]c1=O	-3	-31	-29	.	2	7	i	-1
O=C(NCc1ccccc1)c1ccc2c(c1)C(=O)N(Cc1cccnc1)C2=O	12	-4	-5	1	0	2	i	-4
Cc1ccsc1C(=O)OCC(=O)NC1CC1	.	-15	-63	-1	0	5	.	.
CCNC(=O)c1nc[nH]c1C(=O)NCC	-5	-18	.	-13	1	4	.	-14
CC(Sc1nnnn1C)C(=O)Nc1ccc2c(c1)OCCO2 (stereo unspecified)	3	.	8	-2	1	5	i	2
O=S(=O)(NCC1CCCO1)c1ccc(Cl)cc1 (stereo unspecified)	5	-16	-13	-38	-4	1	i	-3

Next section:
SMILES	PABP FP inh	UUG fidelity	HIV Env fusion	CSC inhib	MT1-MMP act inh	MT1-MMP act inh RFP	Rce1 inhib	eIF4H inh	others
COc1ccccc1OC(C)C(=O)N(Cc1ccco1)C1CCS(=O)(=O)C1 (stereo unspecified)	0	-4	.	-10	-4	2	i	-6
Cc1ccc(/C=N/n2nnnc2N)cc1	.	.	-11	0	1	-2	i	.
Cc1cc(F)ccc1S(=O)(=O)N1CCCOC1CNC(=O)C(=O)NCc1cccnc1 (stereo unspecified)	13	-13	-6	-4	0	-2	i	-2
COc1ccc(/C=N/N2CCN(C3c4ccccc4-c4ccccc43)CC2)cc1O	1	-22	19	36	0	-1	i	-1
CCC(C)NCCOCCOc1ccc(Br)cc1C (stereo unspecified)	-3	.	11	55	2	2	i	4
Cc1cc(=O)[nH]c(SCc2cc(Cl)ccc2OC(F)F)n1	0	-16	-14	-9	-3	-1	i	-16
O=C(CCN1CCOCC1)c1ccccc1	13	.	.	-13	1	5	i	3
O=C(CSc1cccc(C(F)(F)F)c1)NC(=O)NCc1ccco1	1	-6	-1	.	4	0	.	19
O=C(Nc1ccc(NC(=O)c2ccccc2Cl)nc1)c1ccncc1	-2	-9	30	2	2	0	i	2
CCN(c1ccccc1)S(=O)(=O)c1ccc(C(=O)Nc2ccncc2)cc1	.	-4	-5	-14	0	-16	i	.
COCCOc1nc2ccccc2nc1C	-11	-3	-17	-5	0	-1	i	1
Cc1cc(C(=O)CN2C(=O)C(=O)N(C3CCCC3)C2=O)c(C)n1CCc1ccccc1	.	0	35	.	2	-9	.	.
CCN(CC)S(=O)(=O)c1ccc(N2CCCC2)c(NC(=O)CC(C)(C)C)c1	8	-15	17	-5	-4	4	i	-4
O=C(O)c1ccc(CNC(=O)c2ccc(Br)o2)cc1	8	-2	.	.	-1	0	i	-1
Cc1cccc[n+]1CC(=O)N1c2ccccc2Sc2ccccc21	-8	.	17	-6	0	1	i	-7
COC(=O)c1cc(S(=O)(=O)NCC2CCN(CCc3ccc(OC)cc3)CC2)c[nH]1	-2	-6	-5	-4	1	4	i	-11
COc1ccc(C(=O)Cn2c(Br)nc3c2c(=O)n(C)c(=O)n3C)cc1	0	.	.	-4	7	-8	i	-3
CC(=O)OC1C(OC(C)=O)C2C(C)CC3OC(=O)C(C)C3CC2(C)C1OC(C)=O (stereo unspecified)	.	-28	13	.	-4	4	.	.
CC(=O)N/C(=C\c1ccccc1)C(=O)OCc1ccc(C)cc1	4	-4	1	14	-1	0	i	-13
CCOc1ccccc1C(=O)Nc1ccsc1C(=O)OC	2	-1	46	42	-10	-17	i	-4
c1coc(CNc2nc3ccccc3s2)c1	5	-19	-48	2	-3	-2	i	-3
CC(C)NC(=S)N1CCCN(c2ncccc2[N+](=O)[O-])CC1	6	-17	3	.	3	0	i	10

Quoted from the listing (five entries):
SMILES	PABP FP inh	UUG fidelity	HIV Env fusion	CSC inhib	MT1-MMP act inh	MT1-MMP act inh RFP	Rce1 inhib	eIF4H inh	others
CC(=O)OC1C(OC(C)=O)C2C(C)CC3OC(=O)C(C)C3CC2(C)C1OC(C)=O (stereo unspecified)	.	-28	13	.	-4	4	.	.
CC(=O)N/C(=C\c1ccccc1)C(=O)OCc1ccc(C)cc1	4	-4	1	14	-1	0	i	-13
CCOc1ccccc1C(=O)Nc1ccsc1C(=O)OC	2	-1	46	42	-10	-17	i	-4
c1coc(CNc2nc3ccccc3s2)c1	5	-19	-48	2	-3	-2	i	-3
CC(C)NC(=S)N1CCCN(c2ncccc2[N+](=O)[O-])CC1	6	-17	3	.	3	0	i	10

Bioassay records (PubChem)
